rRNA inh HTS – inhibits bacterial ribosomal RNA function over humanized ribosomes; E. coli WT GFP vs humanized-ribosome RFP mutants, fluorescence, 24 h; stronger effect = lower value; DMSO median 0, no signal -100; GFP signal change (wild-type ribosome), % (test concentration not listed); 1.6% of 350,000 active; AID 720706;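 active = significant combined selectivity score with lowered wild-type GFP, culture density cut under 30%, mutant RFP and density less affected; inactive = any of these conditions unmet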; also: one replicate is shown; some compounds called inactive have numbers as strong as hits
UCH37 inh – human UCH37 deubiquitinating enzyme inhibition; Q9Y5K5; purified proteasome/UCH37, Ub-AMC cleavage fluorescence; inhibition, % (test concentration not listed); 0.33% of 330,000 active;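 active = mean of two replicates above 20%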;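 also: 0% = compound-free wells with enzyme and 100% = wells lacking proteasome; stock transfer was 100 nL into about 20 µL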
Target sequence (Q9Y5K5 whole entry, looked up): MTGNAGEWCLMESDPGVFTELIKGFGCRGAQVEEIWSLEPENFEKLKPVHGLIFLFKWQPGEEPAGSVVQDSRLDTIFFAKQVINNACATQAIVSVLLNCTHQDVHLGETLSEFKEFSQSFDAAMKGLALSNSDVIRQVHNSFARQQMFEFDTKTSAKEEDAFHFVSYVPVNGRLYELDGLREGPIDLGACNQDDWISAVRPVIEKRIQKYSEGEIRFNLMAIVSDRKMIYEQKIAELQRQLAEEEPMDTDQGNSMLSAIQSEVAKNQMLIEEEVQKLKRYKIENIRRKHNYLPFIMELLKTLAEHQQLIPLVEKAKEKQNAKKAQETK
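Reagent: Ub-AMC substrate; assay system: Proteasome-associated human UCH37 deubiquitinase; controls: no-proteasome and no-compound wells; read-out: % inhibition of Ub-AMC cleavage fluorescence; timing: 30 min preincubation with enzyme, 25 min cleavage at room temperature; signal: AMC fluorescence from Ub-AMC cleavage, excitation 355 nm, emission 460 nm; buffer or medium: Tris-HCl pH 7.4 plus ovalbumin, ATP-MgCl2, DTT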
A1 inh – inhibitors of the anti-apoptotic protein A1, read as caspase activation | MEF A1-2A-BIM cells, Caspase-Glo 3/7 luminescence, 3 h; percent of clofoctol response, vehicle zero | caspase activation, % (no concentration beside the values) | 0.066% of 330,000 active | AID 2462;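 active = over half of replicate activation scores above 10%, or exactly half above 10 with the replicate mean above 10; inconclusive = replicate mean below 10 yet half the replicates above 10; inactive = over half of replicates below 10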;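 also: wells of about 30 µL received 50 nL stock; many hits fall short of the cut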
T cruzi inh – blocks replication of Trypanosoma cruzi; 1.4% of 300,000 active; T. cruzi beta-gal in NIH3T3, luminescence, 90 h; inhibition, % (test concentration not listed); AID 1885;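 active = mean inhibition across valid replicates above about 55%, limit read from the data; inconclusive = mean below that limit but half or more replicates reach it; inactive = mean below it, under half of replicates reach it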;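 also: signal also drops with host cell toxicity which is not excluded here; 0% = plate median of DMSO wells and 100% = zero luminescence signal; higher percent means less beta-gal luminescence so fewer parasites; stock transfer was 50 nL into about 50 µL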
FGF22 binding – FGF22 (human) thermal shift binding; Q9HCT0; recombinant FGF22 thermal shift, SYPRO orange fluorescence; percent of sucrose octasulfate shift, DMSO zero; calls only at 9.99 µM; 1.5% of 340,000 active; AID 651658;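 active = melting point raised past a set limit in the mean and every replicate; inconclusive = no clear call; three in four hits are not shown here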
Target sequence (Q9HCT0 whole entry, looked up): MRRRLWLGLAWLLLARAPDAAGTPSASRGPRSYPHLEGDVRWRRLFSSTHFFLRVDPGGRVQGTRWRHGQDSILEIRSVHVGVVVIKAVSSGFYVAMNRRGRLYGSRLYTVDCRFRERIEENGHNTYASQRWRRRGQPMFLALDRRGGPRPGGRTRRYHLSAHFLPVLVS
MLL AF4-AF9 inh – blocks AF4 peptide binding to human AF9. P42568. AlphaScreen, biotin-AF4 peptide binding to FLAG-AF9. inhibition, % at 10 µM. 0.47% of 350,000 active;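 active = every replicate reaching a set inhibition limit, whatever the replicate mean, cut at about 25% in these data; inconclusive = mean inhibition reaches that limit but some replicates miss it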;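 also: 0% = plate neutral control median and 100% = total signal loss; the record names both 10 and 1 µM as test concentration; the first replicate is given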
Target sequence (P42568 whole entry, looked up): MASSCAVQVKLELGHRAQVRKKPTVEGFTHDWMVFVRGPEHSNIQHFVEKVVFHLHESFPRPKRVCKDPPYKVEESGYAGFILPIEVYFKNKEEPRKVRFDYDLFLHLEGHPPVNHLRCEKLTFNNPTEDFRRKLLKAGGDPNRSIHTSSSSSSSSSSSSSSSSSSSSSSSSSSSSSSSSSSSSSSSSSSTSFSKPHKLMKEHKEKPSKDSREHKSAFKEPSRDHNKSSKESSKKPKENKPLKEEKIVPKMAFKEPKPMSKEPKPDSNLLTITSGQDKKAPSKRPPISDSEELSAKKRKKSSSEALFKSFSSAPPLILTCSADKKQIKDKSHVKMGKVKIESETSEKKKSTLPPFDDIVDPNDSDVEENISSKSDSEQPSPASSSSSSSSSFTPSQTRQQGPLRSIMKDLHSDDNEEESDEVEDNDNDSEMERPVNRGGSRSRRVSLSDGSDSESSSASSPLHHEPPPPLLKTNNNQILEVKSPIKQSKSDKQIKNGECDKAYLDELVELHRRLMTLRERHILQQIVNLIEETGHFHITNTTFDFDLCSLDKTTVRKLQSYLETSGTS
Beta apoptosis – blocks beta cell apoptosis. 0.8% of 300,000 active. protection from apoptosis, % (concentration not given with the values). INS-1E cytokine-induced death, ATP luminescence, 48 h; percent of positive-control rescue, neutral wells zero;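 active = all replicates at 75% or more, or half of them and the mean; inconclusive = half reach 75% but not the mean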;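 also: 0% = cytokine-treated negative control wells and 100% = positive control rescue; higher means more ATP so stronger rescue from cytokine killing; wells of about 40 µL received 100 nL stock; the first replicate is given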
E coli growth – blocks Escherichia coli growth; OD600 absorbance (no concentration beside the values); 0.21% of 330,000 active; OD600, 23 h; stronger effect = lower value;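 active = OD600 absorbance below the run mean of sample wells minus 3.6 SD, in any replicate, cut at about 0.56 in these data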;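 also: stock transfer was 300 nL into about 60 µL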
rRNA inh HTS OD600 – also measured in rRNA inh HTS; calls as there; OD600 change, %; measured here: OD600 growth;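 optical density of the mix in the first replicate; 0 = DMSO median and -100 = no signal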
rRNA inh HTS RFP – recorded beside rRNA inh HTS, whose call it bears; RFP signal change, %; measured here: RFP humanized mutant strains;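 first replicate; 0 = DMSO median and -100 = no signal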
* = called active by the depositor; i = inactive; ? = inconclusive; . = no result given.

SMILES	rRNA inh HTS	rRNA inh HTS OD600	rRNA inh HTS RFP	UCH37 inh	A1 inh	T cruzi inh	FGF22 binding	MLL AF4-AF9 inh	Beta apoptosis	E coli growth
CN(C)CCOC(=O)/C(=C/c1cn(C)c2ccccc12)NC(=O)c1ccccc1	4	1	-1.7	12	0.0	8	i	-0.7	-2	0.67
COc1ccc(N2CCN(C(=O)COC(=O)CSc3ccccc3)CC2)cc1	5	-1	-1.0	2.6	.	.	i	1.2	.	0.68
NS(=O)(=O)c1ccc(CCNC(=O)c2cc(-c3ccc(Br)cc3)nc3ccccc23)cc1	.	.	.	-8.7	0.5	21	.	.	5	0.66
CCOC(=O)c1ccc(OCc2nc(-c3cccs3)no2)cc1	.	.	.	3.6	-2.7	-2	.	.	-4	0.67
COc1ccc(CCNC(=O)COC(=O)CNS(=O)(=O)c2ccc(SC)c([N+](=O)[O-])c2)cc1	.	.	.	2.1	-1.0	.	i	1.2	3	0.65
COc1cc(-c2n[nH]c(=S)n2-c2ccc(Br)cc2)cc(OC)c1OC	-16	-8	-0.4	-0.7	-0.4	14	i	-17	5	0.66
CCOC(=O)c1ccc(Oc2nc(NC)nc(Nc3ccccc3)n2)cc1	.	.	.	3.7	-0.3	23	.	.	2	0.71
COc1cc([N+](=O)[O-])ccc1NC(=O)Cc1ccccc1	0	4	6.3	3.0	0.8	1	i	0.7	2	0.68
COc1ccc(-c2nn(CC(=O)N(C)C)c(=O)c3ccccc23)cc1	.	.	.	-1.3	0.5	-11	.	.	-4	0.75
O=C(Nc1ccccc1C(=O)N1CCOCC1)C1CCCO1 (centres undefined)	.	.	.	-1.7	0.2	0	.	.	-6	0.72
CSc1n[nH]c(=O)n1-c1ccc(Cl)cc1	6	20	1.9	3.7	0.6	-29	i	-1.9	-3	0.68
COc1ccc(CC(=O)N2CCN=C2SCc2ccc([N+](=O)[O-])cc2)cc1	-6	0	-0.7	1.6	-0.9	13	i	4.9	-10	0.66
COc1ccc(C2=NOC(C(=O)NCc3ccccn3)C2)cc1OC (centres undefined)	.	.	.	1.9	-0.4	-2	.	.	-4	0.69
CSc1ccccc1C(=O)NCc1ccc(S(N)(=O)=O)cc1	.	.	.	0.8	0.4	-5	.	.	-1	0.67
CC(C)c1ccc(NC(=O)Cn2c(=O)oc3ccccc32)cc1	10	8	1.3	0.6	-0.6	-15	i	1.5	-2	0.66
Cc1ccc(N2CCN(S(=O)(=O)N3CCCCC3)CC2)c(C)c1	-30	-42	-0.5	0.8	-0.1	10	.	-5.0	5	0.68
COc1cc(N2C(=O)c3ccccc3C2=O)c(Cl)cc1C(=O)OCC(=O)N1CCOCC1	0	0	1.3	4.7	0.2	7	i	-0.2	-1	0.66
Cn1c(=O)[nH]c(=O)c2c1nc(N1CCCCC1)n2CCOc1ccccc1	.	.	.	0.8	-1.0	16	.	.	-2	0.73
CCCc1cc(C(=O)N2CCN(S(=O)(=O)c3ccc(OC)c(OC)c3)CC2)cs1	.	.	.	2.3	0.9	1	.	.	-4	0.69
CCOC(=O)c1c(NC(=O)C2=C(C)NC(=S)NC2c2ccc(F)cc2)sc(C)c1C (centres undefined)	4	9	-5.9	-55	-0.2	-6	i	-1.3	1	0.67

2 successive compounds out of the list so far:
SMILES	rRNA inh HTS	rRNA inh HTS OD600	rRNA inh HTS RFP	UCH37 inh	A1 inh	T cruzi inh	FGF22 binding	MLL AF4-AF9 inh	Beta apoptosis	E coli growth
CCCc1cc(C(=O)N2CCN(S(=O)(=O)c3ccc(OC)c(OC)c3)CC2)cs1	.	.	.	2.3	0.9	1	.	.	-4	0.69
CCOC(=O)c1c(NC(=O)C2=C(C)NC(=S)NC2c2ccc(F)cc2)sc(C)c1C (centres undefined)	4	9	-5.9	-55	-0.2	-6	i	-1.3	1	0.67

Next part:
SMILES	rRNA inh HTS	rRNA inh HTS OD600	rRNA inh HTS RFP	UCH37 inh	A1 inh	T cruzi inh	FGF22 binding	MLL AF4-AF9 inh	Beta apoptosis	E coli growth
O=C1CN(c2cc(Cl)cc(Cl)c2)C(=O)CN1/N=C/c1cccnc1	4	10	0.8	.	-0.2	-8	i	-0.4	1	.
CCCCN(C(=O)CSc1nc2ccccc2n1CC)C1CCS(=O)(=O)C1 (centres undefined)	-3	-8	1.2	0.6	-0.4	.	i	-0.5	2	0.66
CCOC(=O)c1c(NC(=O)COc2ccccc2C#N)sc2c1CC(C)(C)NC2(C)C	-17	-21	9.9	-21	-0.8	39	i	2.0	7	0.67
CCN(CC(=O)Nc1ccc([N+](=O)[O-])cc1OC)CC(=O)NC(C)(C)C	-5	-9	-3.5	10	0.0	12	i	2.1	-1	0.71
COC(=O)c1ccc(CNC(=O)COC(=O)c2ccccc2-c2ccccc2)cc1	-28	-53	6.6	1.6	1.3	0	i	-13	2	0.69
O=C(CN(C(=O)c1csnn1)c1cccc(Cl)c1)NC1CCCC1	4	8	-2.6	3.3	-0.2	-4	i	2.2	-2	0.71
CCOC(=O)c1c(NC(=O)Nc2ccc(C)cc2)sc2c1CCN(C)C2	-11	0	-2.6	-21	-0.6	36	i	2.6	-6	0.7
COc1cc(OC)c(/C=C2\SC(=O)N(CC(=O)Nc3ccccc3F)C2=O)c(OC)c1	3	3	6.4	-154	0.4	?	i	-2.7	1	0.74
Cc1cc2cc(CNS(=O)(=O)N(C)C)ccc2[nH]1	-3	4	5.5	-0.7	-0.3	3	i	9.6	-3	0.79
Cc1ccc(C(=O)Nc2ccc([N+](=O)[O-])cn2)o1	.	.	.	6.7	-7.8	1	.	.	3	0.69
Cc1ccccc1NC1=NCC(c2ccc([N+](=O)[O-])cc2)S1 (centres undefined)	-41	-22	-23	5.3	0.1	20	i	16	-8	0.66
CCOc1ccc(NC(=O)CSc2nc3ccccc3c(=O)n2CCNC(C)=O)cc1	.	.	.	-0.2	0.9	1	.	.	.	0.73
CCOc1ccc(C(=O)Oc2ccc(NC(C)=O)cc2)cc1	9	1	-10.0	-0.1	0.1	-14	i	-4.6	-5	0.72
O=C(CSc1nnc(-c2ccncc2)n1-c1ccccc1)N1CCN(c2ccc(Cl)cc2)CC1	.	.	.	2.0	-1.1	51	.	.	-1	0.67
COc1ccc(S(=O)(=O)N2CCN(CC(O)COc3ccc(CC#N)cc3)CC2)cc1OC (centres undefined)	-2	-3	0.3	-0.1	0.5	6	i	-1.1	-7	0.66
O=C(Nc1ccccc1)N1CCN(Cc2ccc(Cl)cc2)CC1	1	-14	-1.8	-0.9	0.4	-11	i	0.2	-6	0.69
Cc1cn(C2CCCCC2)c(=O)[nH]c1=O	20	19	3.7	0.1	.	.	i	-0.5	.	0.68
OCC[C@@H]1C[C@H](O)[C@@H](O)[C@@]2(Cc3ccccc3CCO2)O1	14	4	1.9	-0.5	-3.0	-7	i	4.6	-5	.
O=C(CN1C(=O)c2ccccc2C1=O)N1CCN(C2c3ccccc3-c3ccccc32)CC1	.	.	.	3.6	-0.1	3	.	.	-3	0.73
Cc1ccc(N=Cc2sc(O)c3ccccc23)cc1	.	.	.	-6.3	-7.8	-10	.	.	2	0.61
COc1ccc(NC(=O)CC2SC(N3CCCC3)=NC2=O)cc1Cl (centres undefined)	6	18	0.9	-1.8	0.1	.	i	-14	0	0.7
COc1ccc2nc(N3C(=O)CC(Cc4ccc(C)cc4)C3=O)sc2c1 (centres undefined)	.	.	.	2.9	-0.5	-18	.	.	-5	0.62
COc1ccc(NC(=O)C2CCN(S(C)(=O)=O)CC2)cc1Cl	.	.	.	1.0	0.2	-4	.	.	-2	0.67
Cc1ccc2cc(C(c3nnnn3Cc3ccccc3)N3CCc4ccccc43)c(=O)[nH]c2c1 (centres undefined)	.	.	.	1.0	-1.1	11	.	.	-10	0.71
CCC(CC)CN1CCN=C1Nc1ccccc1	10	-2	-10	-0.5	-0.7	.	i	2.4	-3	0.69
CN(CC(=O)Nc1cccc(F)c1)C(=O)CSc1ccccc1	-1	-2	-0.8	2.8	-0.1	3	i	0.2	-11	0.68
CN1/C(=C/C=C(/C#N)C(N)=O)C(C)(C)c2ccccc21	.	.	.	6.0	-0.4	-11	.	.	9	0.72
Cn1nc(-c2ccccc2)c(CO)c1Sc1ccccc1	-23	-22	-4.5	1.4	-0.6	-11	i	-0.8	3	0.69
Cc1ccccc1NS(=O)(=O)c1ccc(C(=O)NCC(C)(C)N2CCOCC2)cc1	6	12	-0.2	0.3	0.4	-3	i	-12	2	0.65
O=C(O)c1cccc(Cn2cc(Cl)cn2)c1	5	1	-2.6	-0.4	-0.2	-10	.	.	7	0.7
Cc1cc2nc(C(F)(F)F)[nH]c(=O)n2n1	.	.	.	-0.5	0.2	-10	.	.	1	0.76
Cc1ccc(C(=O)COC(=O)CCc2nc3ccccc3[nH]c2=O)cc1C	.	.	.	-2.2	0.3	1	.	.	-5	0.72
COC(=O)c1cc(OC)c(OC)cc1NC(=S)N1CCN(c2ccccc2)CC1	-14	6	1.0	4.0	-0.3	25	i	14	-2	0.69
CN(C(=O)CC1C(=O)NCCN1Cc1ccc(F)cc1)C1CCOCC1 (centres undefined)	7	3	-6.2	-5.7	-1.2	3	i	-27	-3	0.68
O=C(COc1ccccc1)NNC(=O)c1cc2ccccc2o1	.	.	.	3.4	-0.2	-16	.	.	1	0.7
O=C(NCc1ccccn1)C1CCN(Cc2cccc(OCc3ccccc3)c2)CC1	6	6	1.1	3.4	-0.8	7	i	5.2	-7	0.69
Cc1ncc(C[n+]2csc(C)c2C)c(N)n1	24	10	2.6	3.6	-0.9	-24	i	-0.5	-2	0.68
COc1ccccc1N(C)S(=O)(=O)c1ccc(C(=O)OCC(=O)N(C(C)C)C(C)C)cc1	12	6	0.4	2.2	0.2	-21	i	-1.9	-16	0.66
Cn1cnnc1SCC(=O)NNC(=O)COc1ccc(Br)cc1	6	8	2.2	1.7	0.7	-6	i	-1.7	2	0.72
CCC(OCC(O)CN1CCN(CCN2C(=O)c3cccc4cccc(c34)C2=O)CC1)c1ccccc1 (centres undefined)	.	.	.	-1.1	-0.1	1	.	.	46	0.71
O=C(CNc1ccc(F)cc1Cl)Nc1cccc(S(=O)(=O)N2CCCCC2)c1	.	.	.	3.5	-0.9	.	i	-1.2	8	0.69
CCN1CCN(c2ccc(NC(=O)COc3ccc(Cl)cc3C)cc2)CC1	2	7	-4.8	5.0	0.5	.	i	-3.9	2	0.68
COc1cc(NC(=O)CCc2nnc3ccc(N4CCCCC4)nn23)cc(OC)c1OC	-1	13	1.9	3.8	-0.1	-13	i	-3.1	1	0.68
Cc1cccc(NC(=O)Cc2nc(-c3c[nH]c(C(=O)N4CCCC4)c3)cs2)c1	-10	-9	2.5	3.7	.	.	i	4.4	.	0.67
O=[N+]([O-])c1cccc(-c2ccn[nH]2)c1	-7	-37	-3.8	2.6	0.8	-4	i	-0.8	-10	0.63
COC(=O)c1ccc(/C=N/NC(=O)C2CC(=O)N(c3ccc(F)cc3)C2)cc1 (centres undefined)	8	16	2.3	.	-0.1	-11	i	-3.5	3	.
C=CCNc1oc(-c2cccs2)nc1C#N	.	.	.	i	-0.1	3	.	.	3	0.66

Not all compounds are listed; the hit share may differ from the screen's.
